miR-21 reporter: qHTS Assay for Modulators of miRNAs and/orActivators of miR-21 | HeLa miR-21 FLuc reporter, luciferase, 48 h | Potency, µM (series often up to 38.3 µM), for the others: top-dose reporter change, positive = more light | 340,000 tested, under 10 active | AID 2288, 2010; active = well fitted rising curve with a large enough effect; inconclusive = small, poorly fitted or top-dose-only effect; inactive = no such curve, though single readings can be large or run the other way;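 note: % of control where 0% means no effect; miR-21 action dims this reporter so a rising signal means less miR-21 action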
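Using DMEM plus 10% FBS, HeLa miR-21-FLuc cells are incubated with test compounds (final up to about 40uM) for 48 hours; firefly luciferase signal is then imaged following reagent-mediated lysis.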
Rango dissoc inh: qHTS Assay for Inhibitors of RanGTP induced Rango (Ran-regulated importin-beta cargo) - Importin beta complex dissociation. Biochemical FRET Rango-importin beta, RanGTP-induced dissociation. 0.071% of 340,000 active. Snurportin-1 (Homo sapiens) + GTP-binding nuclear protein Ran (Homo sapiens) + Importin …. AID 540253, 2011. Potency, µM (titrated, usually from 46.1 µM), for inactives: at the highest dose activity change, negative = inhibition; active means falling FRET ratio curve, often poorly fitted, with flat reads before Ran was added; inconclusive means other falling curves, or compound fluorescence or quenching; inactive means flat or rising ratio curve;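 note: potency is the fitted concentration of half-maximal effect; % of control where 0% means no effect; nearly all actives have a fitted effect of over 45% in size; -100% = wells without RanGTP and RCC1; the record marks most hits as doubtful in a second field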
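Quantitative HTS using a FRET biosensor: 0.1 uM Rango, 0.25 uM importin beta, 0.6 uM Ran, 2 mM GTP, 0.2 uM RCC1 final, PBS with DTT, Tween-20 and BSA. Post-read taken 45 min after Ran addition.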
Rango complex inh: qHTS Assay for Inhibitors of Rango (Ran-regulated importin-beta cargo) - Importin beta complex formation. Rango CFP/YFP FRET sensor + importin beta, 45 min. AID 540263, 2011. Potency, µM (top dose mostly 92.2 µM), for inactives: at the highest dose inhibition of complex formation. 0.031% of 340,000 active. Importin subunit beta-1 (Homo sapiens), Q14974; active = rising FRET ratio curve, often small or poorly fitted; inconclusive = mostly compound fluorescence or quenching in the first reads; inactive = flat curves in all reads;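 note: potency is the fitted concentration of half-maximal effect; 0% = DMSO wells and 100% = buffer wells lacking importin beta; nearly all actives have a fitted effect of over 15% in size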
Target sequence (Q14974 whole entry, looked up): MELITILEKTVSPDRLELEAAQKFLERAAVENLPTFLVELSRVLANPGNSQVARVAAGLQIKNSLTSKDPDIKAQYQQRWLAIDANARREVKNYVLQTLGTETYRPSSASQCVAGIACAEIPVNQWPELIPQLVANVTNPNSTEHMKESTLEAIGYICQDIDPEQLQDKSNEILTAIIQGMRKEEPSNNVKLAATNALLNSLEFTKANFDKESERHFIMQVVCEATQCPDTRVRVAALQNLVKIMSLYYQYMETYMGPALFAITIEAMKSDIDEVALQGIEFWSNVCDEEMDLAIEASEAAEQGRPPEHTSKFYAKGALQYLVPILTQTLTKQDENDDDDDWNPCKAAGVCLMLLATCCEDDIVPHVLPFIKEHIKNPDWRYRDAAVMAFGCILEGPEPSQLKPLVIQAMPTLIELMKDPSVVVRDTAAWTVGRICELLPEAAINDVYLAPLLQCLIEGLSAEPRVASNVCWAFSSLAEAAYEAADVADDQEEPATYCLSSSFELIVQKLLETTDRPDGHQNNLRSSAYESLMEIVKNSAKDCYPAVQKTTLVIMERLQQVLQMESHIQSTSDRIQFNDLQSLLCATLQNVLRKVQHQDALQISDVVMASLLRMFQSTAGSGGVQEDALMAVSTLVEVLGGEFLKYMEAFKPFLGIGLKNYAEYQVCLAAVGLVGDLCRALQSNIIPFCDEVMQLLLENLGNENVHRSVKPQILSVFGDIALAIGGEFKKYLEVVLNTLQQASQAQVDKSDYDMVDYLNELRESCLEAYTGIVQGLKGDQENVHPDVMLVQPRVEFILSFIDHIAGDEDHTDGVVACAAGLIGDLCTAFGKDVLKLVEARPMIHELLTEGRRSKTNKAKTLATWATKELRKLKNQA
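FRET biosensor (snurportin 1 IBB flanked by EYFP and cerulean), 50 nM, with compound 5 min, then 0.125 microM importin beta in PBS, 1 mM DTT, 0.02% Tween-20, 0.1% BSA. CFP/YFP ratio read after 45 min at room temperature; pre-read flags interference.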
GLA inh pH 4.5: qHTS Assay for Inhibitors of Human alpha-Galactosidase at pH 4.5; 230,000 tested, under 10 active; purified enzyme, 4-MU-alpha-Gal fluorescence, pH 4.5; Alpha-galactosidase A (Homo sapiens), P06280; activity change, negative = inhibition, % at 105 µM; inconclusive = small, poorly fitted or top-dose-only inhibition, or a rising curve; inactive = flat fitted curve, though single readings scatter; no compound was filed as active;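 note: 0% = full activity with enzyme and -100% = basal without enzyme; dose as in the result columns while the protocol names 77 µM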
* = called active by the depositor; ? = inconclusive; / = no result given; & = joins results of further samples. These rows are one share of the data (hit frequency here may not be typical).

The opening 4 entries, ahead of the listing:
SMILES	miR-21 reporter	Rango dissoc inh	Rango complex inh	GLA inh pH 4.5
CC(C)c1ccc(CN2CCN(C(=O)CCl)CC2)cc1	?	-2%	-0.6%	0
O=C(COC(=O)CNS(=O)(=O)c1ccc(F)c(F)c1F)NC1CCCC1	/	-8%	-4.4%	/
O=C(Cn1cnc2ccccc2c1=O)c1c[nH]c2ccccc12	-17%	2%	-1.4%	2
O=C(COC(=O)c1ccc(F)cc1)NC1CC1	/	0%	-0.5%	/

The list itself, repeating the preview:
SMILES	miR-21 reporter	Rango dissoc inh	Rango complex inh	GLA inh pH 4.5
CC(C)c1ccc(CN2CCN(C(=O)CCl)CC2)cc1	?	-2%	-0.6%	0
O=C(COC(=O)CNS(=O)(=O)c1ccc(F)c(F)c1F)NC1CCCC1	/	-8%	-4.4%	/
O=C(Cn1cnc2ccccc2c1=O)c1c[nH]c2ccccc12	-17%	2%	-1.4%	2
O=C(COC(=O)c1ccc(F)cc1)NC1CC1	/	0%	-0.5%	/
Cc1ccc(Cn2c(=O)n(CCC(=O)NCc3ccc4c(c3)OCO4)c(=O)c3ccccc32)cc1	-1%	-3%	4.1%	7
COc1ccc(OC)c(-n2c(N)c(C(=O)NCC3CCCO3)c3nc4ccccc4nc32)c1 (stereo unspecified)	7%	?	?	-6
Fc1ccc(CSc2nnc(-c3cccnc3)o2)cc1	-38%	1%	-1.5%	6
Cc1[nH]n(-c2ccc([N+](=O)[O-])cc2)c(=O)c1C=NCCN1CCN(C(=O)c2ccc(Br)cc2)CC1	-2%	4%	1.4%	-3
O=C(Nc1nc2ccccc2n1CCN1CCOCC1)c1ccc(Cn2cc([N+](=O)[O-])cn2)o1	-3%	13%	-0.7%	/
COc1ccc([N+](=O)[O-])cc1NC(=O)C1CCCNC1=O (stereo unspecified)	0%	-9%	4.4%	/
CCN(CC)c1ccc(NC(=O)c2cnccn2)cc1S(=O)(=O)Nc1ccc(OC)cc1	16%	-17%	-4.4%	-14
COc1ccc(Nc2sc(C(=O)c3ccc(Cl)cc3)c(N)c2C(=O)Nc2ccccc2OC)cc1	18%	-21%	-4.4%	6
Cn1c(CCNC(=O)C2CCCCC2)nc2cc([N+](=O)[O-])ccc21	-1%	-5%	0.8%	-1
CC(NC(=O)COC(=O)CCc1nc(=O)c2ccccc2n1C)c1ccccc1 (stereo unspecified)	2%	10%	0.3%	-2
Nc1ncnc(N(c2ccccc2)C2CCCCC2)c1[N+](=O)[O-]	2%	-3%	0.0%	-3
COc1cc(C=O)ccc1Oc1nnnn1-c1ccccc1	-1%	-10%	-2.1%	1
Cn1c2ccccc2c(=O)c2c(=O)n(-c3ccc(F)cc3)c(-c3cccs3)nc21	-18%	-24%	4.4%	1
CC(=O)Nc1ccc(/C=C(\C#N)C(=O)NC2CCCCC2)cc1	1%	-8%	?	-2
O=C(C1CCN(c2ncnc3c2sc2cccc(F)c23)CC1)N1CCOCC1	-12%	-25%	-6.3%	1
CCC(C)(C(=O)NC1CCCC1)N(C(=O)CNC(C)=O)c1ccccc1 (stereo unspecified)	1%	5%	-0.2%	-7
CCCn1c(/C=C/c2cc[n+](C)cc2)nc2ccccc21	3%	?	?	/
CC(=O)N1CC=CC1(CC(C)C)C(=O)NCCc1c[nH]c2ccccc12 (stereo unspecified)	-11%	-2%	2.8%	5&4
O=C(CSc1nc(-c2ccc(F)cc2)cc(C(F)(F)F)n1)NCc1cccs1	-1%	5%	0.3%	-4
Cc1ccc(SCCCCN2C(=O)NC(C)(C)C2=O)cc1	-22%	-3%	-0.1%	-1
COc1ccc(C(=O)NC(=S)Nc2ccc(N3CCCC3)cc2)cc1	-3%	4%	1.5%	-9
Other compounds follow.
SMILES	miR-21 reporter	Rango dissoc inh	Rango complex inh	GLA inh pH 4.5
O=C(COC(=O)c1ccc2ccccc2c1O)NCC(F)(F)F	-16%	0%	?	5
CCCOc1ccc(C2/C(=C(/O)c3ccccc3)C(=O)C(=O)N2CCCN(C)C)cc1OC (stereo unspecified)	/	9%	-0.8%	/
CCn1cc(C(=O)O)c(=O)c2cc(S(=O)(=O)N(C)C)ccc21	-3%	0%	0.7%	6
CCS(=O)(=O)N1CCC(C(=O)NCCC2=CCCCC2)CC1	-6%	0%	-2.3%	5
COc1ccc2nc(C)c3cc(C)oc3c2c1	-12%	-4%	-0.6%	-5
COC(=O)CCC(=O)OC1(C)C(=O)C2=CN(Cc3ccccc3)C(c3ccc(OC)cc3)=CC2=C(Br)C1=O (stereo unspecified)	/	?	?	-3
CN(C)C(=O)c1ccc(NC(=O)COC(=O)c2cc(S(=O)(=O)N(C)C)ccc2N2CCCC2)cc1	/	1%	0.3%	/
Cc1ccc(COC(=O)c2cc(S(=O)(=O)N3CCCCC3)ccc2N2CCOCC2)cc1	/	22%	-1.4%	/
O=[N+]([O-])c1ccc(CSc2ccc(-c3ccccn3)nn2)cc1	-2%	2%	3.7%	-1
CCc1nnc(NC(=O)[C@@H](NC(=O)c2cccc(S(=O)(=O)N(CC)CC)c2)C(C)C)s1	-1%	-7%	-3.6%	2
O=C(Nc1cccc(S(=O)(=O)N2CCOCC2)c1)C1CC1	/	13%	-1.4%	/
COc1ccc(/C=N/NC(=O)c2ccc(COc3cccc4cccnc34)cc2)cc1O	1%	-4%	-3.7%	-1
CC(C)Oc1ccc(C(=O)N/N=C/c2ccc(-c3ccc(S(=O)(=O)Nc4ncccn4)cc3)o2)cc1	-15%	?	?	0
COC(=O)C1C2C=CC3(CN(C(C)C)C(=O)C13)O2 (stereo unspecified)	-2%	2%	-1.3%	2
N#Cc1ccc(OCC(=O)NCC2(N3CCCCC3)CCCCC2)cc1	-3%	0%	0.1%	-23
Cc1cc2cccc(C)c2nc1SCC(=O)NNC(=O)c1ccco1	-12%	13%	0.1%	1
CCC[N+]1(CC#CC2(O)CCCCC2)CCOCC1	-1%	23%	7.7%	0
COc1ccc(-c2nc3ccccc3c(=O)o2)cc1OC	-15%	1%	2.7%	4
Nc1c(C(=O)NCc2cccs2)nnn1CC(=O)Nc1cccc(Cl)c1	0%	12%	-1.2%	-6
COc1ccc(C=O)cc1Cn1ccnc1	0%	1%	-3.0%	4
Cc1ccc(C(CCN(Cc2ccccc2)C(=O)c2ccco2)c2ccco2)cc1 (stereo unspecified)	-21%	-5%	-3.0%	-5
CSc1ccccc1NC(=S)Nc1ccccc1C(F)(F)F	-1%	1%	-2.6%	6
CCOc1ncccc1C(=O)Nc1nnc(C2CC2)s1	-10%	2%	-4.5%	11
CN1CCN(CCC(=O)Nc2ccccc2Cl)CC1	-5%	12%	3.7%	4
CC(=O)N(C(C)=O)S(=O)(=O)c1ccc(N=NN2CCCCC2)cc1	-16%	0%	0.3%	-1

Compound profiles, from the list above. Screens in order: miR-21 reporter	Rango dissoc inh	Rango complex inh	GLA inh pH 4.5
Profile of O=C(Nc1cccc(S(=O)(=O)N2CCOCC2)c1)C1CC1 → /	13%	-1.4%	/
Profile of COC(=O)CCC(=O)OC1(C)C(=O)C2=CN(Cc3ccccc3)C(c3ccc(OC)cc3)=CC2=C(Br)C1=O (stereo unspecified) → /	?	?	-3
Profile of COc1ccc(C=O)cc1Cn1ccnc1 → 0%	1%	-3.0%	4

The listing continues:
SMILES	miR-21 reporter	Rango dissoc inh	Rango complex inh	GLA inh pH 4.5
COc1ccc(/C=N/NC(=O)CC(=O)NCCc2ccccc2)cc1OC	-4%	14%	3.1%	2
COc1ccc(NC(=O)CN(C)CC(=O)Nc2cccc(S(=O)(=O)N(C)c3ccccc3)c2)cc1	7%	-9%	-3.9%	-24
Cc1ccc(C(=O)Nc2nnc(CC(=O)N/N=C/c3ccc(O)c(O)c3)s2)cc1	-20%	5%	-4.6%	/
Cn1c(CCCOc2ccc(Cl)cc2Cl)nnc1SCC(=O)Nc1nccs1	-2%	10%	-3.2%	-7
COc1ccc(C2CC(=O)Oc3c(C(C)C)ccc(C)c32)cc1 (stereo unspecified)	/	-9%	-1.8%	-18
COC(=O)c1cc2ccsc2n1Cc1ccccc1F	-23%	-3%	-0.2%	-1
COc1cc(CCC(=O)N2CCN(c3ccccc3)CC2)cc(OC)c1OC	6%	-12%	?	/
Cc1occc1C(=O)Nc1sccc1C(N)=O	-21%	-1%	-3.6%	/
COc1ccccc1N=Nc1c(C)[nH]n(-c2ccccc2)c1=O	-2%	-16%	-2.7%	/
Cc1cc(C(=O)Cn2c(CO)nc3ccccc32)c(C)n1C	-16%	-8%	0.3%	-7
Cc1ccccc1C(=O)N=c1sccn1C	-21%	20%	1.4%	1
COc1ccc(NC(=O)CCS(=O)(=O)c2ccc3c(c2)CCCN3C(C)=O)cc1	2%	?	4.3%	7
O=C(Nc1ccc(Cl)c(C(=O)N2CCOCC2)c1)c1ccccc1	1%	0%	-0.1%	/
N/C(=N\OC(=O)c1ccccc1[N+](=O)[O-])c1cccnc1	-40%	-1%	1.4%	3
CCc1ccc(NC(=S)N(CCN(C)C)C(C)c2ccncc2)cc1 (stereo unspecified)	1%	-3%	-0.6%	0
CSCCC(NC(=O)c1ccco1)c1nc2ccccc2[nH]1 (stereo unspecified)	-3%	-5%	0.4%	/
Cc1ccc2[nH]c3nc(SCCN4CCOCC4)nnc3c2c1	-26%	2%	0.0%	-19
Cc1cccc(C(=O)NCCCNC(=O)c2ccco2)c1	-2%	-1%	0.0%	/
CC(C)c1ccc(S(=O)(=O)N2CCN(C(=O)C3CCN(C(=O)c4ccc(F)cc4)CC3)CC2)cc1	8%	-30%	-2.1%	/
COCCn1cnc2c1c(=O)n(Cc1c(F)cccc1Cl)c(=O)n2Cc1ccccc1	-4%	-4%	2.0%	/
O=C(CNC(=O)c1ccc2c(c1)OCO2)Nc1ncccc1O	/	17%	-1.9%	/
O=C(NCCc1c[nH]c2ccccc12)C(F)(F)C(F)F	-4%	?	2.4%	0
Cc1nc2ccccn2c1/C(O)=C1\C(=O)C(=O)N(CCN(C)C)C1c1ccco1 (stereo unspecified)	0%	-10%	7.4%	2
Cc1nc2ccc(F)cc2cc1C(=O)Nc1ccc(Cl)c(Cl)c1	-4%	-13%	-1.1%	2
CC(=O)N1c2ccc(S(=O)(=O)N3CCCC(C(=O)Nc4cccc(F)c4)C3)cc2CC1C (stereo unspecified)	13%	-11%	0.1%	/
(listing goes on)
SMILES	miR-21 reporter	Rango dissoc inh	Rango complex inh	GLA inh pH 4.5
Cc1ccc(C(=O)CSc2nc3cccnc3n2C)cc1	-12%	-4%	-0.1%	-12
CCCN(CC(=O)Nc1cccc(Br)c1)CC(=O)Nc1ccc(F)c(F)c1F	14%	2%	0.8%	-14
CC(C)(C)S(=O)(=O)c1ccsc1C(=O)O	-8%	12%	0.5%	4
COC(=O)C(C(=O)OC)C(CC(=O)c1ccc(Br)cc1)c1ccccc1 (stereo unspecified)	/	-9%	-0.2%	/
Cc1ccc(CNC(=O)c2cc(-c3cc(C)cc(C)c3O)n[nH]2)cc1	8%	-8%	?	-9
COc1ccc(OCC(=O)NCCCN2CCOCC2)cc1	-7%	0%	4.9%	8
CCOC(=O)C1C(=O)NC(c2ccccc2)=NC1c1ccc(Br)cc1 (stereo unspecified)	0%	-12%	2.8%	2
COC(=O)N/N=C/c1cn(Cc2ccccc2F)c2ccccc12	8%	-6%	-0.8%	-4
COc1ccc(CCNC(=O)CCC(=O)c2cccs2)cc1OC	/	-5%	-1.0%	/
C=C(C)C(=O)NC1=NN(c2ccccc2)C(=O)C1	-3%	-3%	-2.9%	-6
COC(=O)[C@]1(C)N[C@H](CN(C)S(=O)(=O)c2ccc(OC)cc2)[C@@H]2C(=O)N(C)C(=O)[C@@H]21	/	16%	4.4%	/
CCOC(=O)c1c(C)sc2c1N(C(C)=O)c1cc(Cl)ccc1S2	-21%	0%	-0.7%	8
O=C(CC1CCCC1)Nc1nc2ccccc2[nH]1	-39%	-4%	2.5%	-5
CC(C)(C)N(CC#CCC(O)(c1ccccc1)c1ccccc1)CCO	0%	-12%	-1.5%	-8
CC(C)Cn1cnc2c(N)nc3ccccc3c21	-12%	8%	-1.0%	-19
